# Bioassay records as filed in PubChem BioAssay.
# Choline anaer gr: growth inhibitors of anaerobic choline-fed gram-negatives, minimal medium, absorbance; Gram-negative bacterium anaerobic choline minimal medium; active compounds read low; many inactives read as strong as hits in the columns shown; calls only; 55,000 tested, 0.2% active; AID 1963822, 2024;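 active = growth z-score on choline under -2 at 7 or 20 h with little or no fall on glycerol, limits in tiers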;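 also: stock transfer was 300 nL into about 50 µL; the organism is E. coli; final concentration not given here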
# Choline anaer gr early: further read-out of Choline anaer gr, marked with its call; z-score; measured here: choline growth z-score, timepoint 1;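 score of optical density at 7 h as mean of two plates; lower means less growth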
# An asterisk follows results filed as active; i = inactive; & = joins results of further samples.
Compound | Choline anaer gr | Choline anaer gr early
O=C(Nc1cccc2cccnc12)C1CCC1 | i | 0.12
Cc1ccc(C(=O)N2CCN(c3cc(N(C)C)nc(C)n3)CC2)cc1 | i | 0.9
Cc1ccc(COc2cc(C(=O)NCC3CCCO3)c3ccccc3n2)cc1 (configuration not stated) | i | 0.63
CS(=O)(=O)Nc1ccc(C2=NN(C(=O)CCC(=O)O)C(c3ccc(F)cc3)C2)cc1 (configuration not stated) | i | -0.41
Cc1occc1-c1nnc2sc(-c3ccccn3)nn12 | i | 0.72
Cc1cc(OCC(=O)Nc2onc3c2CC(C)CC3)cc(C)c1Cl (configuration not stated) | i | -1.5
COc1ccc(Cn2ccc3nc(C)c(C(=O)NC4CCCC4)cc3c2=O)cc1 | i | 0.97
COc1ccc(S(=O)(=O)N2CCN(c3nc4ccccc4n4cccc34)CC2)cc1OC | i | 0.08
CC1CCc2c(sc(Nc3nc4ccc(F)cc4s3)c2C(N)=O)C1 (configuration not stated) | i | -0.96
Fc1cccc(CSc2nccn3nc(-c4ccc(Br)cc4)cc23)c1 | i | 1.5
CCCCC[C@H](O)/C=C/[C@@H]1[C@@H](C/C=C\CCCC(=O)O)[C@@H](O)C[C@H]1O | i | 0.59&-1.2&-1.3&0.42
CCCCOc1ccc(C(=O)Nc2ccc3c(c2)NC(=O)CO3)cc1 | i | 1.1
O=C(NCc1nc2cccnc2n1Cc1ccccc1)C1CC1 | i | -0.05
CCn1nnc(NCc2ccc(-c3cc(Cl)ccc3Cl)o2)n1 | i | 0.08
O=C(C1CC1)N1CCC(n2nc(-c3ccccc3)oc2=O)CC1 | i | 0.39
COc1ccc(C(CNC(=O)c2ccc(F)cc2)N2CCCCC2)cc1 (configuration not stated) | i | 0.8
O=C(Nc1cccc(N2CCn3c(nc4cc(Cl)ccc43)C2)c1)C1CCCCC1 | i | 1.3
CCCc1cc(Nc2ccc(F)c(Cl)c2)n2nc(-c3ccco3)nc2n1 | i | 1.5
Cc1ccc(NC(=O)c2cc3ccccn3n2)cc1 | i | -1.2
CCOC(=O)c1c(NC(=O)COc2ccccc2C)sc(C(=O)N2CCCC2)c1C | i | 1.9
COc1cc(S(C)=O)ccc1-c1nc2ncccc2[nH]1 (configuration not stated) | i | -0.49
CCc1onc(C)c1C1CCCN1C(=O)c1cc(C(F)(F)F)nn1C (configuration not stated) | i | 0.02
CCN(CC)CCCNC(=O)Cn1nc(N2CCN(c3ccccc3)CC2)ccc1=O | i | -0.74
CC(C)Cn1cnc2nc(CSc3ccccc3NC(=O)Nc3ccc(F)cc3F)cc(=O)n21 | i | 0.18
Cc1cccc(NC(=O)C2CCCN(S(=O)(=O)c3cc(-c4noc(C5CCC5)n4)sc3C)C2)n1 (configuration not stated) | i | 0.19
COc1ccc(-c2cc(C(=O)N3CCN(S(=O)(=O)c4ccc(OC)c(OC)c4)CC3)[nH]n2)cc1 | i | -0.74
Cc1nc(-c2cc(S(=O)(=O)N3CCCC(C(=O)Nc4ccc5c(c4)OCCO5)C3)c(C)s2)no1 (configuration not stated) | i | -0.33
CCCCN(C)c1ccc2nnc(CCc3nc(-c4ccc(Cl)cc4)no3)n2n1 | i | 0.09
CN1CCN(CCNc2nc(C3CC3)nc3c2CCC3)CC1 | i | -4.1
COc1ccc2[nH]cc(CCN3CC(C(=O)Nc4nnc(C(F)(F)F)s4)CC3=O)c2c1 (configuration not stated) | i | 0.39
Cc1cccc(-c2[nH]ncc2-c2ccc3ncccc3n2)n1 | i | -0.66
Cn1ccc2cc(NC(=O)Nc3cccnc3)ccc21 | i | -0.11
CCOc1ccc(NC(=O)Nc2ccc(Nc3cc(N(C)C)nc(C)n3)cc2)cc1 | i | 4.2
CCOc1ccccc1CNC(=O)CN1CCN(C(=O)Nc2ccc(Cl)cc2)CC1=O | i | -0.67
CC(C)n1c2c(=O)[nH]c(=O)n(C)c2n2c(-c3ccc(Br)cc3)nnc12 | i | 0.36
NC(=O)C1CCN(C(=O)C2CCN(S(=O)(=O)Cc3ccc(Cl)cc3)CC2)CC1 | i | 1.4
COc1ccccc1C1Nc2c(C)cc(C)cc2[C@H]2OCCC[C@@H]12 (some centres not stated) | i | 1.4
O=C1NC(c2cccc([N+](=O)[O-])c2)=CCN1c1ccccc1O | i | 1&0.68&0.53
COc1ccc(C(=O)Oc2cc(-c3ccc(OC)c(OC)c3)cc(=O)c3c(C)oc(C)c23)cc1 | i | -1.4
Cc1ccc(-c2noc3ncnc(N4CCC(C(=O)NC5CCCC5)CC4)c23)cc1 | i | 0.02

# 7 structures from above, arranged by length of the SMILES, rising.
Compound | Choline anaer gr | Choline anaer gr early
Cc1cccc(-c2[nH]ncc2-c2ccc3ncccc3n2)n1 | i | -0.66
O=C1NC(c2cccc([N+](=O)[O-])c2)=CCN1c1ccccc1O | i | 1&0.68&0.53
COc1ccccc1C1Nc2c(C)cc(C)cc2[C@H]2OCCC[C@@H]12 (some centres not stated) | i | 1.4
CCOc1ccccc1CNC(=O)CN1CCN(C(=O)Nc2ccc(Cl)cc2)CC1=O | i | -0.67
Cc1ccc(-c2noc3ncnc(N4CCC(C(=O)NC5CCCC5)CC4)c23)cc1 | i | 0.02
NC(=O)C1CCN(C(=O)C2CCN(S(=O)(=O)Cc3ccc(Cl)cc3)CC2)CC1 | i | 1.4
COc1ccc(C(=O)Oc2cc(-c3ccc(OC)c(OC)c3)cc(=O)c3c(C)oc(C)c23)cc1 | i | -1.4

# Remaining list, next part
Compound | Choline anaer gr | Choline anaer gr early
CC(=O)N[C@@H](CS)C(=O)O | i | -0.28&0.02
C(=C\c1ccccc1)/CN1CCN(C(c2ccccc2)c2ccccc2)CC1 | i | 0.51&-0.58
CCC(C)NC(=O)CCc1nc(N2CC(C)CC(C)C2)c2c(C)noc2n1 (configuration not stated) | i | -1.7
Cn1cnc(S(=O)(=O)N2CCC(C(=O)NC3CCCc4ccccc43)CC2)c1 (configuration not stated) | i | 0.31
Cc1cc(C)nc(NC(c2ccc(Cl)cc2)c2c(NC(=O)c3ccccc3)sc(C)c2C)n1 (configuration not stated) | i | 2.4
COc1ccc(S(=O)(=O)Nc2c(-n3cnnc3)nn(C)c2C)cc1OC | i | 0.36
Cc1cccc(N2C(=O)C(Cc3ccccc3)N=C2N2CCN(C)CC2)c1 (configuration not stated) | i | -0.07
Cc1ccccc1OC(=O)CSc1nc(-c2ccccc2)nc2cc(=O)[nH]n12 | i | -1

# Continued; the last 2 above are carried over.
Compound | Choline anaer gr | Choline anaer gr early
Cc1cccc(N2C(=O)C(Cc3ccccc3)N=C2N2CCN(C)CC2)c1 (configuration not stated) | i | -0.07
Cc1ccccc1OC(=O)CSc1nc(-c2ccccc2)nc2cc(=O)[nH]n12 | i | -1
COC(=O)Cn1c(=O)oc2cc(S(=O)(=O)N3CCN(c4ccccn4)CC3)ccc21 | i | 1
O=C(CCc1nc(CS(=O)(=O)c2ccc(F)cc2)no1)Nc1cc(F)ccc1F | i | -0.44
COc1ccc(NS(=O)(=O)c2ccc3c(c2)NC(=O)CCS3)c(OC)c1 | i | 0.18
Cc1sc2ncc(C(=O)N3CCCC3)c(=O)n2c1C | i | 0.02
CC(C)(C)C(=O)NC1=C(C(=O)c2ccccc2)N(Cc2ccccc2)S(=O)(=O)c2ccccc21 | i | 0.24
Cn1cnc2cc(-c3noc(C4CCC4)n3)ccc21 | i | -1.2
CCn1cc(C)c(C(=O)O)c1CC(=O)Nc1cccnc1 | i | 0.7
COc1ccccc1-n1c(=O)n(Cc2cn3ccccc3n2)c(=O)c2c(C)cc(C)nc21 | i | 0.06
Cc1nc2c(c(C)c1CCC(=O)NCCc1ccccc1)c(=O)n(C)c(=O)n2C | i | 0.07
O=C1COc2cc(S(=O)(=O)N3CCN(C(=O)c4cc5ccccc5[nH]4)CC3)c(Cl)cc2N1 | i | 0.28
O=C(NCCc1ccc(Cl)cc1)c1cccc(-n2cnc3cccnc32)c1 | i | -0.39
CC(C)Cc1ccc(S(=O)(=O)Nc2ncn(Cc3ccc(Cl)cc3)n2)cc1 | i | 0.4
O=C(Nc1ccc2c(c1)OCCO2)c1nc(-n2cnnc2)ccc1Br | i | -0.73
Cc1ccc(Nc2cc(C)nc3nc(C)nn23)cc1 | i | 0.71
O=S(=O)(NCCc1n[nH]c(Cc2ccccc2)n1)c1ccc(F)cc1F | i | 0.53
Clc1cccc(-c2noc3ncnc(N4CCC(N5CCCCC5)CC4)c23)c1 | i | -1.7
Cc1cc(N2CCC(C)CC2)nc2ccc(NC(=O)CCC(=O)N3CCN(c4ccccn4)CC3)cc12 | i | 0.64
CCc1ccc(NC(=O)C(NS(=O)(=O)c2ccc3c(c2)CCCC(=O)N3)C(C)C)cc1 (configuration not stated) | i | 0.98
Cc1cccc(N2CCN(C(=O)C3CCN(c4ccc(N5CCOCC5)nn4)CC3)CC2C)c1 (configuration not stated) | i | -0.59
COc1cccc(-n2nnc3c(N4CCN(C(=O)CCC5CCCCC5)CC4)ncnc32)c1 | i | 0.53
COc1cccc(C(=O)N2CCOc3ccc(COCc4ccc(Cl)cc4)cc3C2)c1 | i | -0.08
Cc1ccc(C(=O)c2sc(Nc3ccccc3)nc2N)c(C)c1 | i | -0.3
Cc1ccc(S(=O)(=O)Nc2ccc3[nH]c(=O)[nH]c3c2)c(C)c1 | i | 1.4
COc1cc(NC(=O)N2Cc3c(sc4c3CCN(C)C4)-n3cccc3C2c2ccc(F)cc2)cc(OC)c1 (configuration not stated) | i | -0.82
CCOc1ccc(NC(=O)c2cc(S(=O)(=O)Nc3ccc(OCC)cc3)[nH]n2)cc1 | i | 0.3
Cc1ccccc1C(=O)Nc1ccc2c(c1)NC(=O)CO2 | i | -2
CCc1ccc(CNC(=O)C2CCCN(c3nn4c(=O)cc(C)nc4s3)C2)cc1 (configuration not stated) | i | 0.27
Cc1ccc(-c2nnc(SCc3noc(CCC(=O)Nc4ccc(F)c(Cl)c4)n3)o2)cc1 | i | 0.85
CCCn1c(=O)c2ccccc2n2c(=O)n(CC(=O)c3ccc(OCC)cc3)nc12 | i | 0.47
CCOC(=O)c1[nH]c(C)c(S(=O)(=O)Nc2ccc(Br)cc2F)c1C | i | -0.12
COc1ccc(CCNC(=O)c2ccc3cc(-c4ccccc4)[nH]c3c2)cc1OC | i | 0.49
CC(C)n1cnc2c(-c3ccc(F)cc3)csc2c1=O | i | -0.04
COc1ccc(NC(=O)Cn2nc(C(=O)Nc3ccccc3)ccc2=O)cc1 | i | 1.5
Cc1ccc2c(c1)OC=CC(C(=O)Nc1ncc(Cc3ccccc3F)s1)=C2 | i | -0.01
O=C(NC1CCCC1)c1ccc2c(=O)n(CC3CCCO3)c(SCc3ccc(Cl)cc3)nc2c1 (configuration not stated) | i | 2
CCSc1nn(CC(=O)Nc2ccc(F)c(F)c2)c(N)c1S(=O)(=O)c1ccc(Cl)cc1 | i | 1.1
COc1ccc(-c2nc(C(=O)N3CCCC3)nn2-c2ccccc2Cl)cc1 | i | -0.8
Cn1nc(C(=O)NC2CCCC2)c2c1-c1cc(Cl)ccc1SC2 | i | -0.69
CC1CCN(c2nc3ncc4c(c3c(=O)[nH]2)CC(C)(C)CC4=O)CC1 | i | -1.1
CCOc1ccccc1NC(=O)C1CCCN(S(=O)(=O)c2cc(-c3noc(C)n3)sc2C)C1 (configuration not stated) | i | 0.4
Cn1cc(S(=O)(=O)N2CCOCC2)cc1C(=O)N1CCN(c2ccccn2)CC1 | i | 1
O=C1C2N=NN(c3ccc(F)cc3)C2C(=O)N1c1ccccc1 (configuration not stated) | i | 0.04
CN(C)c1ccc(C(CNC(=O)Cc2ccc(Cl)cc2)N(C)C)cc1 (configuration not stated) | i | -0.36
CC(C)Cn1c(=O)c(-c2ccc(C(=O)NC(C)C)cc2)nc2ccccc21 | i | -0.64
COc1ccc(-c2nc3c4c(C)c(C)n(-c5ccccc5C)c4ncn3n2)cc1OC | i | -0.42
CN(C)C1C(=O)C(C(N)=O)=C(O)[C@@]2(O)C(=O)C3=C(O)c4c(O)ccc(Cl)c4C(O)[C@H]3C[C@@H]12 (some centres not stated) | i | -2.6
O=C(NC1CCCCC1)c1cnc2sccn2c1=O | i | 0.32
COc1ccc(OC)c(CNC(=O)C2CCCN2S(=O)(=O)c2cc3c(cc2C)NC(=O)CO3)c1 (configuration not stated) | i | -0.5
COc1ccccc1CNC(=O)c1sccc1N(C)S(=O)(=O)c1ccccc1 | i | 0.69
O=C(CCC(=O)N1CCc2cc(S(=O)(=O)NCCN3CCOCC3)ccc21)N1CCCCC1 | i | -0.3
Cc1csc(-c2csc(S(=O)(=O)Nc3ccc(F)c(Cl)c3)c2)n1 | i | -0.37
CCCCN(CC)CCNC(=O)c1ccc(NC(=O)N2CCSc3nc(C)cc(C)c32)cc1 | i | -0.07
CCOc1ccc(Oc2nc3ccccc3n3c(CC)nnc23)cc1 | i | 0.35
CCOC(=O)c1[nH]c(C)c(CN(C(=O)c2cc3ccc(OC)cc3[nH]2)C2CCCCC2)c1C | i | 1.2
CN1C(C(=O)NCc2ccccc2)=C(c2ccccc2)c2cc(Cl)ccc2S1(=O)=O | i | 0.42
CCc1ccc(-c2ccc(=O)[nH]n2)cc1S(=O)(=O)N(C)C1CCCCC1 | i | -0.02

# The list continues.
Compound | Choline anaer gr | Choline anaer gr early
CCOc1ccc(NC(=O)c2nnn(-c3ccc4noc(-c5ccccc5)c4c3)c2C)cc1 | i | 0.48
CCC1=C(c2ccc(C)cc2)S(=O)(=O)NC1=NCC(=O)NC1CCN(Cc2ccccc2)CC1 | i | -0.17
CCCCN(C)c1ncnc2onc(-c3ccc(C)cc3)c12 | i | -0.59
CS(=O)(=O)N(CC(=O)N1CCN(c2ccccc2)CC1)c1ccc(Br)cc1 | i | 0.15
O=[N+]([O-])c1cc2nc(O)c(O)nc2cc1[N+](=O)[O-] | i | 0.11
CCC(C(=O)N1CCN(c2ccc(Cl)cc2)CC1)N1C(=O)CCCc2ccccc21 (configuration not stated) | i | 1.3
CCCCc1nnc2sc(COc3ccc(Br)cc3)nn12 | i | -0.39

# A portion of the library; count on the stated rates, not on these rows.
